Menin-MLL FL inh: qHTS Assay for Inhibitors Targeting the Menin-MLL Interaction in MLL Related Leukemias: Competition With Fluorescein Labeled MLL-derived Peptide; 290,000 tested, under 10 active; AID 1766, 2009; FP activity change, % at 61.4 µM; Fluorescence polarization, fluorescein-MLL peptide displacement from menin; inconclusive = falling polarisation curve, or a change in total fluorescence; inactive = total fluorescence flat and polarisation flat or rising; no compound was filed as active; the % refers to the polarisation; negative = inhibition;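 also: % of control where 0% means no effect; inhibitors lower the polarisation; unlabelled MLL peptide was the positive control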
gsp antag: qHTS for Antagonists of gsp, the Etiologic Mutation Responsible for Fibrous Dysplasia/McCune-Albright Syndrome: qHTS | gsp-mutant cells, cAMP HTRF, 30 min; control for the full effect not named in the record | Potency, µM (titrated, usually from 76.9 µM), for inactives: at the highest dose activity change, negative = inhibition, usual class: inhibitors | actives 0.4% (n = 340,000); active = falling curve of any shape with a large fitted effect; inconclusive = falling curve, mostly with a smaller effect; inactive = flat or rising curve; cell line not stated here;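 also: intracellular cAMP measured with PDE inhibitor Ro 20-1724 present during compound exposure; potency is read from the fitted curve at half-maximal effect; % is scaled to controls: 0 for no effect and ±100 for the full control effect; nearly all actives have a fitted effect of over 65% in size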
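Cells in G418 medium, seeded 16-24 h, 37C; buffer exchange to DPBS + 1 mM CaCl2, 0.5 mM MgCl2, 0.05% BSA; cpds in DMSO + […] (300 uM stock), 30 min 37C; HTRF cAMP detection.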
Sfp PPTase inh: qHTS Assay for Inhibitors of Bacillus subtilis Sfp phosphopantetheinyl transferase (PPTase); AID 1490, 2009; Biochemical Sfp PPTase activity, qHTS; Potency, µM, without a hit: max response, negative = inhibition, hits mostly inhibitors; actives 3.5% (n = 310,000); active = well fitted inhibition curve with a large enough effect; inconclusive = small, poorly fitted or top-dose-only effect, or another doubt; inactive = no such curve, though single readings can be large or run the other way;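 also: the enzyme is Sfp with the accession as filed and its product quenches rhodamine fluorescence; potency is read from the fitted curve at half-maximal effect; 0% = enzyme reaction without inhibitor and -100% = no enzyme wells; top concentration of the series not given in the record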
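Fluorescence-quenching assay with 15 nM Sfp, 5 uM rhodamine-CoA and 12.5 uM BHQ-2-labelled ybbR peptide in pH 7.6 Hepes/MgCl2 buffer. Enzyme was pre-incubated with compound for 15 min at room temperature. Rate was taken from the 30-min fluorescence change (525/598 nm).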
TRPML1 blocker: qHTS for Inhibitors of the Human Mucolipin Transient Receptor Potential 1 (TRPML1) | AID 624415, 2012 | TRPML1-inducible cells, Ca2+ dye fluorescence, FDSS; stronger effect = lower value; inhibition of EC80 agonist-evoked calcium signal | Mucolipin-1 (Homo sapiens), Q9GZU1 | activity change, negative = inhibition, % (no concentration beside the values) | actives 0.02% (n = 390,000); in the data active means activity change below about -50%; inconclusive means about -30% to -50%; inactive means above about -30%;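 also: stimulus is agonist 54-4 at its EC80 concentration; % is scaled to controls: 0 for no effect and ±100 for the full control effect; compound concentration not given in the record; the text of the record puts the active cut at -80%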
Target sequence (Q9GZU1 whole entry, looked up): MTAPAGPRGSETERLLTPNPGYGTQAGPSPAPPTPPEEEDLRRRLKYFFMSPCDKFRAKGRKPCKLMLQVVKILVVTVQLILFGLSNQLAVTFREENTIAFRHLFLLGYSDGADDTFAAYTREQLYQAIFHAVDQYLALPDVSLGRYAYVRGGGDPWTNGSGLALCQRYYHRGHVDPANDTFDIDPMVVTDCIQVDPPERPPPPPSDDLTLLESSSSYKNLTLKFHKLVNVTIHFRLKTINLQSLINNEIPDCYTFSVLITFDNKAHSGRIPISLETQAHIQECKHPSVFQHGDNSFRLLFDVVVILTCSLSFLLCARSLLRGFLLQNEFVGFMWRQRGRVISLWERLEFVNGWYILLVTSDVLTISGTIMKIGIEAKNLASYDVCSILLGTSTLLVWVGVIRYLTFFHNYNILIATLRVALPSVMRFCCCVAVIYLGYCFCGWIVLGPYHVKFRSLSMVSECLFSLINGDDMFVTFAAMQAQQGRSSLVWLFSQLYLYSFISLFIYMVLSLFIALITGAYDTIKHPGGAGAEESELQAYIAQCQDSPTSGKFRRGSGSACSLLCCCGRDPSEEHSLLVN
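TRPML1-DL cells, Tet-induced overnight (~16 h, 37 °C) at 1,500 cells/well, were loaded with Ca8 no-wash dye plus quencher for 45-90 min at room temperature. Compounds were pinned during FDSS kinetic reading; agonist 54-4 at EC80 (4 uM final) then added.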
gsp agonist: qHTS for Agonist of gsp, the Etiologic Mutation Responsible for Fibrous Dysplasia/McCune-Albright Syndrome: qHTS. gsp mutant cells, cAMP HTRF, 30 min; control for the full effect not named in the record. Potency, µM (series often up to 76.9 µM), for inactives: top-dose activation (cAMP increase), hits mostly activators. actives 0.13% (n = 340,000). AID 624287, 2012; active = well fitted activation curve with a large enough effect; inconclusive = small, poorly fitted or top-dose-only effect, or another doubt; inactive = no such curve, though single readings can be large or run the other way; cell line not stated here;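 also: phosphodiesterase inhibitor Ro 20-1724 added with compounds to block cAMP breakdown; potency is read from the fitted curve at half-maximal effect; nearly all actives have a fitted effect of over 60% in size; about a fifth of the inactives were tested at one dose only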
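Cells in DMEM/10% FBS with G418 were pretreated with compounds in DMSO plus […] (300 uM stock) for 30 min at 37C. cAMP was measured by HTRF (cAMP-d2 plus anti-cAMP antibody-K) after 30 min at room temperature.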
ClpP mod: qHTS Assay for Activators of ClpP; ATP-dependent Clp protease proteolytic subunit (Bacillus subtilis (strain 168)), P80244; purified B. subtilis ClpP, FRET peptide cleavage, 20 min; Potency, µM (highest dose often 57.5 µM), for the others: at the top dose activity change, negative = active; actives 1.9% (n = 340,000); AID 651965, 2013; active = well fitted falling curve with a large enough effect; inconclusive = small, poorly fitted or top-dose-only effect; inactive = no such curve, though single readings can be large or run the other way; also: potency is read from the fitted curve at half-maximal effect; the source files actives as falling curves though it sought activators and does not explain the sign; nearly all actives have a fitted effect of over 65% in size; many hits overshoot -100%
Target sequence (P80244 whole entry, looked up): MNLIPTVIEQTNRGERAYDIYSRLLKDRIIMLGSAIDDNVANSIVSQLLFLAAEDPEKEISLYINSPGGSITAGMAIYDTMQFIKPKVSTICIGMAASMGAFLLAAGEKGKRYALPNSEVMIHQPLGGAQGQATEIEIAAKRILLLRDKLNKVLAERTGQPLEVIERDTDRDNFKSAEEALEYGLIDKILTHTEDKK
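Purified B. subtilis ClpP, 10 microg/mL final in Tris/HCl pH8 with KCl, BSA, glycerol and Tween-20, cleaved an Abz/nitrotyrosine-quenched decapeptide. Fluorescence (ex 320, em 430) was read at 0 and 20 min at room temperature. Delta was normalized to 5.8 microM ADEP and DMSO/no-enzyme controls.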
TRPV1 PAM: HTS Assay for Compounds that Act as Potentiators of the Vanilloid Receptor 1 | AID 540277, 2011 | potentiation, % at 8.33 µM | TRPV1-expressing cells, Fluo-8 calcium influx, capsaicin EC20 potentiation; host cell line not named in the record; control for the full effect not named in the record | actives 0.02% (n = 320,000) | Transient receptor potential cation channel subfamily V member 1 (Homo sapiens), Q8NER1; active means potentiation above 80%; inconclusive means 30% to 80%; inactive means below 30%; also: 0% is about no effect
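Cells expressing TRPV1 were dye-loaded with Fluo-8 and read kinetically: 10 s baseline, 3 min after compound (agonist portion), then 2 min after EC20 capsaicin (allosteric enhancer portion). Calcium-bound dye fluorescence at 480/520 nm.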
The depositor's hits bear a star; ? = inconclusive; nt = no result given; [ ] = dose if it differs, or a comment.

Every second line gives: Sfp PPTase inh	TRPV1 PAM	Menin-MLL FL inh	ClpP mod	gsp agonist	gsp antag	TRPML1 blocker
COc1ccc(-c2cc(C(=O)NCC3CCCO3)c3ccccc3n2)cc1 (centres undefined)
→ -12%	3	0.0	4.2%	12%	-24%	17
CC(=O)NC1(c2ccc(F)cc2)CCN(C(=O)c2c(F)cccc2F)CC1
→ 12%	6	-2.9	-1.0%	8%[15.4 µM]	13%	8
CC(OC(=O)Cc1ccc(Br)cc1)C(=O)NC1CCCC1 (centres undefined)
→ nt	nt	nt	-2.8%	-18%	-4%	24
CCOc1cc(/C=N/N=C2/NC(=O)C(CC(=O)O)S2)ccc1OCc1ccc(Cl)cc1Cl (centres undefined)
→ -4%	3	1.4	nt	-3%[15.4 µM]	0%	-8
Fc1ccccc1NC(=S)N1CCCCC1
→ 0%	-2	2.1	1.1%	?	8%	0
COc1cccc(CNc2nc3nc4c(c(=O)n3[nH]2)CCC4)c1
→ -4%	-10	1.5	-4.0%	42%	2%	9
COCc1cc(=O)[nH]c2cc(NC(=O)C(C)(C)CCl)c(C)cc12
→ 15%	10	-0.8	?	-3%	-10%	16
O=C(NC1CCCC1)C(c1ccc(Cl)cc1)N1CCN(C2CCCCC2)CC1 (centres undefined)
→ 10%	-8	1.6	-0.8%	-31%	4%	nt
O=S(=O)(c1ccc(F)cc1)N1CCC(O)(c2ccc3c(c2)OCO3)CC1
→ -29%	29	1.3	-0.5%	3%	-2%	4
Cc1ccc(C)c(NC(=O)NNC(=O)c2cc3ccccc3cc2O)c1
→ 2%	6	nt	3.7%	7%[15.4 µM]	8%	-10

Additional compounds:
Every second line gives: Sfp PPTase inh	TRPV1 PAM	Menin-MLL FL inh	ClpP mod	gsp agonist	gsp antag	TRPML1 blocker
Cc1cc(C)c(S(=O)(=O)NC(C)C)c(C)c1-n1cnnn1
→ 5%	-5	-2.9	nt	3%[15.4 µM]	-2%	17
COc1ccc(NC(=O)CS(=O)(=O)c2ccc(Br)cc2)cc1
→ 3%	-6	7.6	nt	-40%[inhibitor]	-4%	19
CCC1(c2ccc(F)cc2)NC(=O)N(CC(=O)NCC(=O)Nc2cccc(C)c2C)C1=O (centres undefined)
→ nt	26	nt	nt	2%[15.4 µM]	4%	7
CCN1CCc2c(sc3c2c(NCc2ccco2)nc2nnnn23)C1
→ ?	-1	?	13µM*	?	26%	36
CCCCOC(=O)C(NC(=O)c1ccccc1)=C(C)C
→ 21%	-6	2.7	-0.7%	-29%	0%	14
Cc1ccc(C(=O)NCCCN2CCOCC2)cc1N1CCCC1=O
→ -4%	11	3.7	-0.1%	-36%[inhibitor]	13%	4
O=C(Nc1ccncc1NC(=O)c1cccc([N+](=O)[O-])c1)c1cccc([N+](=O)[O-])c1
→ 16%	0	-1.7	nt	1%	-9%	-1
COc1ccc(NC(C)=O)cc1S(=O)(=O)NC1CCSc2ccccc21 (centres undefined)
→ 16%	-12	7.8	nt	1%	6%	20
Cc1ccc2nc(-c3ccc(S(=O)(=O)N4CCOCC4)cc3)cn2c1
→ 3%	-13	0.9	nt	nt	nt	nt
CCOc1cc(Cl)c(S(=O)(=O)NCCCn2ccnc2)cc1Cl
→ -5%	-4	-0.9	0.1%	0%	-4%	nt

More entries.
Every second line gives: Sfp PPTase inh	TRPV1 PAM	Menin-MLL FL inh	ClpP mod	gsp agonist	gsp antag	TRPML1 blocker
O=C(Nc1nnc(CSCc2ccc(Cl)cc2)s1)c1cccc([N+](=O)[O-])c1
→ 7%	19	1.1	25µM*	22%[15.4 µM]	-26%	-9
Cn1cc(C(=O)Nc2ccccn2)c(=O)c2ccccc21
→ 14%	-19	-0.6	nt	-9%	1%	-11
Cc1ccc(NC(=O)Cn2ncc(Cl)c(Cl)c2=O)cc1S(=O)(=O)N1CCCCC1
→ nt	4	nt	-4.1%	14%	-30%	33
Cc1cc(C(=O)COC(=O)CN(C)S(=O)(=O)c2ccc(Cl)cc2)c(C)n1CC1CCCO1 (centres undefined)
→ -14%	1	2.9	3.3%	-4%	-23%	1
CCOC(=O)C(NC(=O)c1cccc(Cl)c1)(Nc1nnc(C)s1)C(F)(F)F (centres undefined)
→ 13%	8	0.8	0.9%	7%	11%	10
Cc1cc(=O)oc2c(C)c(OCC(=O)N(C)C)ccc12
→ 6%	4	-0.7	16µM*	-2%	3%[15.4 µM]	-11
CCCCOc1ccc(S(=O)(=O)NC(=O)NCc2ccc(OCCC)cc2)cc1
→ 17%	26	1.2	-0.7%	-9%	-8%	-14
CCC(CC)NC(=O)COC(=O)c1cc(SC)ccc1Cl
→ -7%	-3	1.6	nt	16%[15.4 µM]	7%	-6
Cc1ccc(/C=N\NC(=O)CCc2n[nH]c(=O)[nH]c2=O)o1
→ ?	-4	2.2	0.4%	-13%	14%	-12
CNc1cc(CSC)nc(SCc2ccc(Cl)cc2Cl)n1
→ -14%	9	?	-0.8%	-41%[inhibitor]	-3%	13

(list continues)
Every second line gives: Sfp PPTase inh	TRPV1 PAM	Menin-MLL FL inh	ClpP mod	gsp agonist	gsp antag	TRPML1 blocker
CCSc1nc2sc3c(c2c2[n+]1CC(CBr)O2)CCCC3 (centres undefined)
→ 50µM*	-10	-8.1	-0.1%	-1%[15.4 µM]	-14%	16
CC(C)CC(=O)N1CCN(Cc2cccc(Cl)c2)CC1
→ -29%	5	3.5	-4.0%	-2%	-1%	nt
NCC(=O)NNC(=O)OCC1c2ccccc2-c2ccccc21
→ -9%	?	1.5	nt	-58%[inhibitor]	8%	3
CCOc1ccc(NC(=O)CN(C)C(=O)c2csc3c2CCCC3)cc1OCC
→ nt	6	nt	-1.0%	-4%	-9%	-8
Cc1cc(C)cc(N=C(NO)c2cccc([N+](=O)[O-])c2)c1
→ 12%	15	-0.1	-2.0%	35%	8%	0
CC(=O)c1ccc(NC(=O)/C(=C\c2ccco2)NC(=O)c2ccco2)cc1
→ -9%	16	3.4	-3.1%	23%	4%	-6
Cc1ccc(OCC(=O)NC2CCCc3ccccc32)c(C)c1 (centres undefined)
→ -2%	-17	2.2	1.7%	4%[15.4 µM]	-19%	-11
O=C(CN1CCN(Cc2ccccc2F)C1=O)NC1CCCC1
→ ?	3	4.1	1.0%	-3%	5%	-2
OCC1(Cc2cccc(F)c2)CCN(Cc2cccc3nccnc23)CC1
→ 7%	0	-7.0	nt	12%	1%	-6
Cc1[nH]nc2c1C1(CCN(C(=O)OCc3ccccc3)CC1)C(C#N)=C(N)O2
→ 4%	1	-2.4	0.8%	1%	-4%	0

Remaining list, next part:
Every second line gives: Sfp PPTase inh	TRPV1 PAM	Menin-MLL FL inh	ClpP mod	gsp agonist	gsp antag	TRPML1 blocker
CCn1c(=O)c2cc(C(=O)N3CCN(C(=O)c4ccco4)CC3)sc2c2ccccc21
→ -4%	-10	0.9	nt	nt	nt	nt
COc1ccc(N(C(=O)c2cnccn2)C(C(=O)NC2CCCCC2)c2cc(OC)c(OC)c(OC)c2)cc1 (centres undefined)
→ 17%	2	1.6	nt	3%	2%	11
CC(Sc1ncccn1)C(=O)Nc1ccc2c(c1)OCCO2 (centres undefined)
→ nt	9	nt	-2.5%	-14%[15.4 µM]	0%	7
COc1cc(/C=N/n2c(-c3ccccc3)n[nH]c2=S)cc(OC)c1O
→ ?	-1	1.3	nt	-13%[15.4 µM]	0%	-10
CCOc1cc2c3c(c1)C(C)CC(C)(C)N3C(=O)C2=O (centres undefined)
→ 3%	5	6.2	-2.3%	14%	6%	0
Cc1ccccc1NC(=O)/C(C#N)=C/c1ccc(-c2ccc(Cl)c(C(=O)O)c2)o1
→ 10%	-16	?	nt	-4%	?	-9
CC(=O)c1ccc(N2CCN(C3CCC(C(C)(C)C)CC3)CC2)cc1 (centres undefined)
→ 14%	-11	2.7	-0.1%	19%[15.4 µM]	-7%	46
Cc1noc(C)c1S(=O)(=O)N1CCC(C(=O)N2CCN(c3ccccc3Cl)CC2)CC1
→ -2%	3	3.9	0.7%	-40%[inhibitor]	12%	20
Cc1ccn(-c2ccc(NC(=O)c3cccs3)cc2)n1
→ 24%	-3	-4.3	nt	9%	1%	-1
[O-]/C(=C(\C(=S)Nc1ccccc1F)[n+]1ccccc1)c1ccc(-c2ccccc2)cc1
→ 18µM*	-6	0.4	1.1%	7%[15.4 µM]	-1%	-1

Next part.
Every second line gives: Sfp PPTase inh	TRPV1 PAM	Menin-MLL FL inh	ClpP mod	gsp agonist	gsp antag	TRPML1 blocker
CC1N(C(=O)N(C)C)CCN1S(=O)(=O)c1ccccc1 (centres undefined)
→ 16%	6	0.9	nt	?	12%	10
O=C1/C(=C/c2ccc(F)c(F)c2)CSc2sccc21
→ 0%	17	2.6	-3.3%	13%	10%	-4
Cc1ccc(-c2cc(C(=O)N/N=C/C=C/c3ccccc3)n[nH]2)o1
→ -16%	12	1.1	-1.4%	-7%	?	27
Cc1ccc(NC(=O)CN2C(=O)N/C(=C/c3cc(C)n(-c4ccc(C(=O)O)cc4)c3C)C2=O)cc1
→ -45%	5	?	nt	-19%[15.4 µM]	19%	2
CCN1CCN(C(=O)NC(c2ccc(C)c(F)c2)C(Cl)Cl)CC1 (centres undefined)
→ 12%	-1	-1.8	nt	11%[15.4 µM]	10%	18
OCC1(Cc2ccccc2)CCN(Cc2cnn(-c3ccccc3F)c2)CC1
→ 15%	8	0.2	nt	-3%[15.4 µM]	6%	-10

High-throughput results deposited in PubChem by National Center for Advancing Translational Sciences (NCATS).
